# 26S disassembly: blocks ATP-dependent breakdown of the yeast 26S proteasome; AID 751; actives 0.2% (n = 24,000); inhibition of disassembly, % (concentration not given with the values); anti-FLAG beads, GFP-proteasome disassembly, flow cytometry;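 active means above 40%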;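 further: plate controls were ATP control with full disassembly for no effect and ATP-gamma-S intact proteasomes for full effect; higher percent means more bead fluorescence retained so stronger block of disassembly; stock transfer was 100 nL into about 10 µL; wells with too few beads may also be inconclusive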
# VCAM-1 rise: boosters of cytokine-driven VCAM-1 levels – cell-based, plate reader, pooled HUVEC, TNFa stimulus (AID 455). HUVEC TNFa-induced VCAM-1 immunofluorescence, plate reader; numbers were filed only for top-ranked candidate wells. augmentation, % at 5 µM. actives 0.2% (n = 10,000);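 active means a compound raising TNF-alpha-driven VCAM-1 surface staining, with its hit status upheld on visual or statistical review; inactive means the rest, including hits rejected on review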;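 further: 0% = TNFa with vehicle and 100% = strongest image-checked hit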
# Active calls of the source: *; i = inactive; · = no result given.
SMILES	26S disassembly	VCAM-1 rise
Cc1ccc(NC2=NC(c3ccccc3)n3c(nc(C)cc3=O)N2)cc1 (stereo not given)	-0.6	i
CCOC(=O)N1CCN(C(=O)c2cc3c(-c4ccc(Cl)cc4)nn(C)c3s2)CC1	-0.1	·
CC1CCC(NC(=O)CC2Oc3ccccc3NC2=O)CC1 (stereo not given)	-2.2	·
COC(=O)n1c(=S)oc2cc(Cl)ccc21	0.3	i
C=Cn1c(C(=O)O)cc(CC)c1-c1ccccc1	1.9	i
CCOC(=O)c1oc2cc(OCC(N)=O)ccc2c(=O)c1-c1ccc(OC)c(OC)c1	2.6	i
O=C(NCCc1ccc(Cl)cc1)C1CCN(S(=O)(=O)N2CCC3(CC2)OCCO3)CC1	0.5	·
CC(=O)Nc1nonc1NC(=O)CSc1nc2ccccc2o1	0.2	·
CCC(CC)n1[nH]c(=O)c2c(C)cc(C)nc21	-4.4	i
CCOC(=O)c1[nH]c(C)c(C(=O)NCC2CCCO2)c1C (stereo not given)	0.7	i
COc1ccc(-c2cc(C(=O)Nc3cc(C)n(Cc4ccc(Cl)cc4)n3)no2)cc1OC	0.1	·
COc1ccc(C(=O)N2CCC(C(=O)Nc3ccccc3OC)CC2)cc1	4.4	·
CCOc1ccc(OCc2cccc(C(=O)N3CCOCC3)c2)cc1	0.5	i
CCC1CCCCN1S(=O)(=O)c1ccc(C(=O)Nc2nnc(-c3cccs3)o2)cc1 (stereo not given)	-0.8	i
COc1ccc(CN2C(=O)CCC2(C)C(=O)NC2CCCC2)c(OC)c1 (stereo not given)	-0.7	·
Cn1c(/C(C#N)=C(\O)c2ccc(S(=O)(=O)N3CCCCC3)cc2)nc2ccccc21	-1.1	·
CCSC1(SCC)N=C(N)C2(C#N)C(c3ccccc3)NC(C)=C(C)C12C#N (stereo not given)	0.6	i
O=C(CCCCn1c(=O)[nH]c2ccccc2c1=O)NCCc1c[nH]c2ccccc12	0.8	·
O=C(c1noc2c1CCc1ccccc1-2)N1CCCc2ccccc21	-0.1	·
CCOC(=O)c1[nH]c(C)c(C(=O)NCCCOC(C)C)c1C	0.4	·
O=C(NCCCN1CCOCC1)c1ccc(CS(=O)(=O)Cc2ccc(Cl)cc2)o1	-0.3	·
C/C(=C\c1cc(C(=O)O)c(C)o1)CO	-0.7	i
CC1=C(C(N)=O)C(c2cccnc2)n2nc(-c3cccc(Cl)c3)nc2N1 (stereo not given)	1.1	·
O=C(CCn1c(=O)sc2ccccc21)NCc1ccc2c(c1)OCO2	0.5	i
COc1ccc(CCNC(=O)C2CC(=O)N(C3CCCC3)C2)cc1OC (stereo not given)	-1.7	·
Cn1c(=O)cc(SCC(=O)N2CCCC2)c2cc(Cl)ccc21	0.9	·
CCOC(=O)N1CCN(C(=O)COc2ccc(S(=O)(=O)NC(C)C)cc2)CC1	-0.8	i
COc1cc(NC(=O)c2cc(OC)c(OC)c(OC)c2)c(OC)cc1NC(=O)CN1CCCCC1	2.0	i
COc1ccccc1-c1coc2c(CN3CCN(CCO)CC3)c(O)ccc2c1=O	-1.0	i
O=C(NC1CCCCC1)c1nc2c(nnn2Cc2ccccc2Cl)c(=O)[nH]1	1.7	i
O=C(CSc1nc2c(cnn2-c2ccc(F)cc2)c(=O)[nH]1)N1CCOCC1	-0.1	·
Cn1nc(CC(=O)Nc2ccc(N3CCN(C(=O)OC(C)(C)C)CC3)cc2)c2ccccc2c1=O	-0.7	i
O=C(NCCc1ccccc1)C1CCN(C(=O)c2sccc2-n2cccc2)CC1	-1.0	·
Cc1nn(Cc2c(Cl)cccc2Cl)c(C)c1NC(=O)c1cc(C(C)C)on1	1.1	·
CCOC(=O)N1CCC(NC(=O)c2ccc(CNS(=O)(=O)c3ccc(F)cc3)cc2)CC1	5.5	·
CCOC(=O)CC(=O)CSc1nc2c(c(C)c1C#N)CCC2	9.2	·
CCOC(=O)C1CCN(C(=O)C2(NC(=O)Nc3ccccc3Cl)CCCCC2)CC1	0.8	i
COc1ccc(C2CC(c3c(Cl)cccc3Cl)n3nc(N)nc3N2)cc1 (stereo not given)	0.4	·
COc1ccc(CNC(=O)C2CCN(C(=O)N3CCOc4ccc(C)cc43)CC2)cc1	1.6	·
Cc1n[nH]c(C)c1S(=O)(=O)N1CCCC(C(=O)Nc2ccc3c(c2)OCCO3)C1 (stereo not given)	-1.7	·
O=C(O)c1cccc(NS(=O)(=O)c2cccc3cccnc23)c1	0.0	·
CC(C)(C)c1cc(C(=O)O)nn1-c1ccccc1	0.4	i
CCOC(=O)N1CCN(Cc2nc3c(c(=O)n(C)c(=O)n3C)n2Cc2ccc(F)cc2)CC1	-0.9	i
Cc1ccc(N(C(C)C(=O)O)S(=O)(=O)c2cccnc2)cc1 (stereo not given)	0.1	·
O=C(NCc1ccc2c(c1)OCO2)C1CCN(S(=O)(=O)c2ccc(Br)s2)CC1	-1.5	·
O=C(NC1CCCC1)C(c1cccs1)N(C(=O)c1ccno1)c1ccccc1 (stereo not given)	-3.2	i
Cc1cccc(-c2nsc(SCC(=O)Nc3nccs3)n2)c1	1.4	·
Cc1cc(Nc2cc(C)on2)n2ncnc2n1	-1.6	·
COCCNc1oc(-c2ccc(C)cc2)nc1C#N	-0.5	i
COC(=O)CSc1nc2sc3c(c2c(=O)n1C1CCCCC1)CCN(C)C3	13.9	i
CCOc1ccc2nc(C)cc(C(=O)O)c2c1	-1.0	·
CCc1nn(C(C)C(=O)N2CCN(Cc3ccccc3)CC2)c(=O)c2cc3occc3n12 (stereo not given)	1.1	·
O=C(NCc1cccnc1)Nc1cccc(NC(=O)NCc2cccnc2)c1	-0.2	·
Cc1ccc(-c2nc(N)n(C(=O)c3cccnc3)n2)cc1	-1.4	i
COc1ccc2c(c1)CCc1c(C(=O)Nc3c(C)n(C)n(-c4ccccc4)c3=O)noc1-2	1.9	·
O=c1c2c(nc3nc(CCc4ccccc4)[nH]n13)CCC2	1.4	i
O=C(c1ccco1)N1CCN=C1SCc1cccnc1	-0.6	·
COc1ccc(CCNC(=O)Cn2cnc3c(cnn3C(C)(C)C)c2=O)cc1OC	-1.5	·
CCCOc1ccc(C2c3c(oc4cc(C)c(C)cc4c3=O)C(=O)N2CCCN(C)C)cc1 (stereo not given)	3.6	·
CCCCCn1c(SCC(=O)OCC)nc2cc(C(=O)NCc3ccco3)ccc2c1=O	3.3	·

# (continued)
SMILES	26S disassembly	VCAM-1 rise
CN(C)c1ccc(-c2nc3ccccc3n2C)cc1	-1.7	·
CCOc1ccc(N2CC(C(=O)Nc3ccccc3OC)CC2=O)cc1 (stereo not given)	-0.5	i
Cc1ccc(S(=O)(=O)N2CCOCC2)cc1C(=O)Nc1nc(-c2cccnc2)cs1	-3.7	i
Cc1ncc([N+](=O)[O-])n1CC(O)CCl (stereo not given)	-0.4	i
COc1cccc(CNC(=O)CN(c2cc(C)cc(C)c2)S(=O)(=O)c2c(C)noc2C)c1	-1.5	·
Cc1cc(OCn2ccc(C(=O)O)n2)ccc1Cl	-0.8	·
COc1cccc2sc(NC(=O)c3ccc(S(=O)(=O)N4CCOCC4)cc3)nc12	-1.2	i
CCc1nc(SCc2cc(Cl)ccc2OC)n[nH]1	-3.2	i
O=C(Nc1nnc(COc2ccc(F)cc2)s1)c1cccs1	0.5	i
CCn1c(SCC(=O)NCc2ccco2)nc2c(c1=O)SC(C)C2 (stereo not given)	1.2	i
CC(NCc1ccco1)C(=O)N1CCc2ccccc2C1 (stereo not given)	12.7	i
c1nc(NCC2(N3CCOCC3)CCCCC2)c2ccsc2n1	0.2	i
CC(=O)NS(=O)(=O)c1ccc(NC(=O)c2ccccc2F)cc1	0.5	i
COc1ccc2[nH]c(=O)c(CN(Cc3cccs3)Cc3nnnn3C(C)(C)C)cc2c1	1.4	i
CC(C)CC(NS(=O)(=O)c1ccc2c(c1)oc(=O)n2C)C(=O)NC1CCCc2ccccc21 (stereo not given)	-0.4	·
Cc1ccc(-c2nc(CS(=O)CC(=O)NCCN3CCCC3)c(C)o2)cc1 (stereo not given)	-0.2	·
c1ccc(C2CC(c3cccs3)n3nnnc3N2)cc1 (stereo not given)	-0.2	·
CCN1CCN(S(=O)(=O)Cc2ccccc2)CC1	-1.9	i
CN(C)C(=O)N1CCCC(C(=O)NCc2ccc(F)cc2Cl)C1 (stereo not given)	-2.1	·
O=C(NCCCc1ccccc1)C1CCN(c2nnc(-n3cccc3)s2)CC1	0.9	·

# Exported field by field: three of the compounds above.
CC(C)CC(NS(=O)(=O)c1ccc2c(c1)oc(=O)n2C)C(=O)NC1CCCc2ccccc21 (stereo not given)
  26S disassembly = -0.4	VCAM-1 rise = ·

Cc1ccc(-c2nc(CS(=O)CC(=O)NCCN3CCCC3)c(C)o2)cc1 (stereo not given)
  26S disassembly = -0.2	VCAM-1 rise = ·

c1ccc(C2CC(c3cccs3)n3nnnc3N2)cc1 (stereo not given)
  26S disassembly = -0.2	VCAM-1 rise = ·

# (listing goes on)
SMILES	26S disassembly	VCAM-1 rise
O=C(CCCCn1c(=O)[nH]c2ccccc2c1=O)N1CCN(c2ncccn2)CC1	0.9	·
O=C(O)c1cccc(NC(=O)c2cccc(S(=O)(=O)N3CCCCC3)c2)c1	-1.5	·
CCCCNC(=O)c1cc(-c2ccc(OC)cc2)on1	-0.7	·
CCOC(=O)c1sc2ccc(S(=O)(=O)N3CCOCC3)cc2c1N	0.7	·
COc1ccc(C2C(C(=O)NCc3cccnc3)c3ccccc3C(=O)N2C)cc1OC (stereo not given)	0.6	·
COc1cc(-c2nn3c(-c4cccnc4)nnc3s2)cc(OC)c1OC	0.2	i
c1ccc(-c2n[nH]c3ccccc23)cc1	0.6	i
COc1cc2c(cc1OC)C(C(=O)O)C(c1ccc(C)o1)N(C)C2=O (stereo not given)	0.0	·
CCC(=O)N1c2ccc(S(=O)(=O)CCC(=O)N3CCN(c4ccccc4)CC3)cc2CC1C (stereo not given)	-2.6	·
O=C(CCCn1c(=S)[nH]c2cc3c(cc2c1=O)OCO3)N1CCN(c2ccccn2)CC1	-0.2	·
COc1ccccc1NC(=O)NC1(C(=O)N2CCC(O)CC2)CCCCC1	-4.5	i
COC(=O)CCC(=O)Nc1ccc(OC)cc1	-0.1	i
Cc1ccc(NC(=O)NC(=O)N(c2ccccc2)S(C)(=O)=O)cc1	-2.4	·
O=C(COC(=O)C12CC3CC(CC(O)(C3)C1)C2)N1CCN(S(=O)(=O)c2ccc(Cl)cc2)CC1	1.7	i
COC(=O)C1CCN(C(=O)CN2C(=O)NC(CCc3ccccc3)C2=O)CC1 (stereo not given)	0.7	i
CCCc1[nH]nc2c1C(c1ccc(OC(=O)N3CCOCC3)c(OC)c1)C(C#N)=C(N)O2 (stereo not given)	-2.2	·
O=C(NCCCN1CCC(Cc2ccccc2)CC1)C1CC(=O)N(C2CCCC2)C1 (stereo not given)	1.7	·
CN(C#N)c1nc(N2CCOCC2)nc(N2CCOCC2)n1	-0.7	i
Cc1cc(NC(=O)CSc2nccn2-c2ccc(Cl)cc2)no1	-0.8	i
COc1ccc(NC(=O)c2oc3ccccc3c2NC(=O)c2ccco2)cc1	-0.5	i
O=c1oc2ccccc2cc1C1=Nn2c(nnc2-c2cccnc2)SC1	2.1	·
COc1ccc(CN(C(=O)c2ccccc2OC)C2CCS(=O)(=O)C2)cc1 (stereo not given)	-1.4	i
CC(=O)Nc1cccc(NC(=O)C2CCCN2C(=O)Nc2ccc(C)cc2)c1 (stereo not given)	0.3	i
Cc1ccc(C(=O)/C=C/Nc2cccc(O)c2)cc1	8.3	i
Cc1[nH]n(C(C)(C)C)c(=O)c1Sc1ccccc1	3.4	·
Oc1ccccc1-c1nnc(COc2ccccc2)o1	-1.4	·
Cc1n[nH]c(C)c1S(=O)(=O)N1CCCC(C(=O)Nc2nccs2)C1 (stereo not given)	-0.1	·
CNC(=O)CN1C(=O)CSc2ncccc21	0.7	·
NC(=O)C1CCN(CC(=O)N2c3ccccc3CCc3ccccc32)CC1	0.0	i
CN(C)C(=O)N1CCCC(C(=O)NCc2ccccc2Cl)C1 (stereo not given)	0.5	·
COc1ccc(OCC(=O)N2CC3(C)CC2CC(C)(C)C3)cc1 (stereo not given)	0.7	i
Cc1nc2ccccc2c2oc(C(=O)NCc3ccccn3)cc12	0.4	i
Cc1ccccc1C1CC(c2ccccc2OC(F)F)Nc2ncnn21 (stereo not given)	0.7	·
O=C(CCS(=O)(=O)c1cccc2nsnc12)NCc1ccccc1	1.8	i
O=C(Cn1cc2c(n1)CCCC2)NCC1CCCO1 (stereo not given)	3.9	·
O=C(Nc1ccccc1C(=O)N1CCCC1)c1cccc(S(=O)(=O)N2CCCCCC2)c1	-0.3	·
Cc1ccc(Cn2cnc3c(nnn3Cc3ccc(Cl)cc3)c2=O)cc1	0.6	·
Cc1c(NC(=O)c2ccc(Br)o2)c(=O)n(-c2ccccc2)n1C	-1.2	i
CCOC(=O)CSc1nnc(CNC(=O)c2ccco2)n1-c1ccc(F)cc1	-2.6	·
CCOc1ccccc1N(CC(=O)N1CCOCC1)S(=O)(=O)c1ccccc1	-3.3	i

# Some of the entries above, reformatted.
COc1ccc(CN(C(=O)c2ccccc2OC)C2CCS(=O)(=O)C2)cc1 (stereo not given)
  26S disassembly: -1.4; VCAM-1 rise: i
CC(=O)Nc1cccc(NC(=O)C2CCCN2C(=O)Nc2ccc(C)cc2)c1 (stereo not given)
  26S disassembly: 0.3; VCAM-1 rise: i

# Screening data from PubChem BioAssay.

# This is a subset (hit frequency here may not be typical).
